Tg IFNy HTS: T. gondii growth inhibition with IFN-gamma, primary screen, cell-based | 69,000 compounds, 3.8% hits | AID 1259416, 2018 | activity change, negative = inhibition, %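 (about 20 µM by stock and volumes)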 | Toxoplasma gondii growth in IFN-gamma-treated host cells; hits give low values; reference of the scale not given here;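 active = below -70%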;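 note: host cells are HeLa cells infected with Toxoplasma gondii; parasite growth read as luciferase light; one replicate is shown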
Starred values were filed as active, the others as inactive. An excerpt (hit frequency here may not be typical).

SMILES | Tg IFNy HTS
COc1ccc(C(=O)N2CCC(c3c(S(C)(=O)=O)cnc4ncnn34)CC2)cc1OC | 53
CN(C)CC(=O)N1CCc2[nH]nc(-c3ccc(F)cc3)c2CC1 | -27
CCC(CC)C(=O)NCCn1nc(-c2ccc(F)cc2)cc1-c1cccnc1 | -27
N/C(=N/OS(=O)(=O)c1ccc([N+](=O)[O-])cc1)c1ccncc1 | 39
Cc1cc2nc(-c3cccc4ccccc34)[nH]c2cc1C | -39
C=C(C)CN1CCN(C(=O)c2cc(C(C)C)nn2C)CC1 | 9
COc1ccc(-c2nc(Cn3nnc(C(=O)Nc4ccc(C)cc4Cl)c3C)c(C)o2)c(OC)c1 | 44
CCN(CC)C(=O)Nc1c(-c2c(Cl)cccc2Cl)noc1C | -4
CO[C@H]1CN(C)C(=O)c2ccc(NS(=O)(=O)CC(F)(F)F)cc2OC[C@@H](C)N(C(=O)NC(C)C)C[C@@H]1C | 11
CCCC(=O)N1CCC(c2nnc(-c3ccc(C)nc3)o2)CC1 | 25
CCCCC(=O)Nc1cccc(C(=O)N(C)Cc2ccncn2)c1 | -9
Cc1cc(CN2CCC(CNC(=O)c3nccc4ccccc34)C2)n[nH]1 (stereo unspecified) | 9
Cc1nc(-c2noc(-c3ccccc3Cl)n2)c(C(F)(F)F)o1 | 253
CC(=O)Cc1ncn(-c2cc(C)on2)n1 | -39
NC(=O)c1c(NC(=O)Cn2c(=O)oc3ccccc32)sc2c1CCCC2 | -15
N#C[C@H]1[C@@H](c2ccc(-c3cccc(F)c3)cc2)[C@H](CO)N1c1nc(-c2ccccc2)cs1 | 10
Cc1ccc(C)c(CN2CCC3(CC2)N=C(c2ccc(Cl)cc2)C(=O)N3)c1 | 107
O=C1OC(=O)C2C1[C@@H]1CC[C@H]2O1 (stereo partly specified) | -77*
CCOC(=O)c1cccnc1N1Cc2cnc(-c3ccccc3)nc2C1 | -10
COCCn1c(C(=O)C2CC2)cc2c1c1ccccc1n2C(C)C | -4
COCCC(=O)N1C[C@H]2OC(=O)N(Cc3ccc(OC)c(OC)c3)[C@H]2C1 | 0
Cc1cc(C(=O)N2CCC3C(C[C@@H](CN4CCCC4)N3C)C2)c(C)o1 (stereo partly specified) | -2
COc1ccc(-c2nc(N3CCc4ccccc43)c3ccccc3n2)cc1 | 96
COc1ccc(CN2C[C@@H]3CCCN3C[C@@H]2CCSC)cc1CN1CCOCC1 | -7
Cc1cc2ccccc2n1CC(=O)N1CCCC(c2ccc(-c3cnc(N)nc3)cn2)C1 (stereo unspecified) | 37
Carrying on.
SMILES | Tg IFNy HTS
CCc1cnc(N2[C@@H](C#N)[C@@H](c3ccc(C#Cc4ccccc4F)cc3)[C@@H]2CO)s1 | -63
COCCNc1ncnc2c1cnn2-c1ccc(Cl)cc1 | 225
O=C(O)c1cccc(CC2CCN(S(=O)(=O)c3ccccc3)C2)c1 (stereo unspecified) | 8
O=C(NCc1ccccc1Cl)c1c(O)c2cccnc2n(-c2ccc(F)cc2)c1=O | 115
COCCN(C)C(C(=O)O)c1ccc(F)c(C)c1 (stereo unspecified) | 5
CCCNC(=O)N1[C@H](C#N)[C@@H](c2ccccc2C2=CCCCC2)[C@@H]1CO | -43
O=c1[nH]c2ccccc2c(O)c1-c1nc(-c2ccc3c(c2)OCO3)no1 | 145
COCCN1C(=O)N(Cc2ccccc2)C2(CCN(Cc3ccc4nsnc4c3)CC2)C1=O | 15
CC(C)n1ccnc1CN1CCC(c2[nH]ncc2Cc2ccccc2)CC1 | -12
Cc1cc(C(=O)N2CC[C@@H]3Oc4ccccc4S(=O)(=O)N(CCN(C)C)[C@@H]3CC2)n[nH]1 | -22
Cc1nc2sccn2c1CN1CCn2nc(C(=O)N3CCCC3)cc2C1 | -45
COc1ccc2c3c(n(C)c2c1)[C@@H](CO)N(C(=O)c1cccc(F)c1)CC31CN(C(=O)c2cccc(F)c2)C1 | -46
CCOC(=O)CC1Sc2ccccc2N=C1SCC(=O)Nc1ccc(Cl)cc1 (stereo unspecified) | -39
CC1CCC(NC(=O)CN2C(=O)CCc3cc(S(=O)(=O)N4CCCCC4C)ccc32)CC1 (stereo unspecified) | -22
COc1cc2c(=O)c(-c3ccc(O)cc3)coc2cc1O | -56
Cc1ccoc1C(=O)N1CCC2C(C[C@@H](CN3CCCC3)N2C)C1 (stereo partly specified) | -10
O=C(Nc1ccccc1)c1cc2ccccc2oc1=O | 395
Cc1nc2ccccc2n1CC(O)Cn1c2ccccc2c2ccccc21 (stereo unspecified) | -1
C[C@H]1CN([C@@H](C)CO)C(=O)c2cc(NC(=O)C3CCCCC3)ccc2O[C@@H]1CN(C)C(=O)Nc1ccc(C(F)(F)F)cc1 | 7
Cc1ccccc1-c1nc(COc2ccccc2OCC(N)=O)c(C)o1 | -6
CC(C)N1CCN(C)C2(CCN(C(=O)c3csnn3)CC2)C1=O | 35
CC(C)CN1CCC2(CC1)CC1(CCN(S(=O)(=O)C3CC3)CC1)N(C)C2=O | 9
CCOC(=O)c1ccccc1NC(=O)N1CCN2CCN(C)C(=O)C2C1 (stereo unspecified) | 0
CCCCOc1ccc(CNC(=O)Cn2ncc3c(N4CCOCC4)ncnc32)cc1 | -42
COc1ccc(/C=C\C(=O)c2c(O)ccc3c(C)cc(=O)oc23)cc1OC | 22

Of the compounds above, these contain an aryl methoxy group.
SMILES | Tg IFNy HTS
COc1ccc(C(=O)N2CCC(c3c(S(C)(=O)=O)cnc4ncnn34)CC2)cc1OC | 53
COc1ccc(-c2nc(Cn3nnc(C(=O)Nc4ccc(C)cc4Cl)c3C)c(C)o2)c(OC)c1 | 44
COCCC(=O)N1C[C@H]2OC(=O)N(Cc3ccc(OC)c(OC)c3)[C@H]2C1 | 0
COc1ccc(-c2nc(N3CCc4ccccc43)c3ccccc3n2)cc1 | 96
COc1ccc(CN2C[C@@H]3CCCN3C[C@@H]2CCSC)cc1CN1CCOCC1 | -7
COc1ccc2c3c(n(C)c2c1)[C@@H](CO)N(C(=O)c1cccc(F)c1)CC31CN(C(=O)c2cccc(F)c2)C1 | -46
COc1cc2c(=O)c(-c3ccc(O)cc3)coc2cc1O | -56
COc1ccc(/C=C\C(=O)c2c(O)ccc3c(C)cc(=O)oc23)cc1OC | 22

Some of the entries so far, tab-delimited:
SMILES	Tg IFNy HTS
COc1ccc(C(=O)N2CCC(c3c(S(C)(=O)=O)cnc4ncnn34)CC2)cc1OC	53
O=C1OC(=O)C2C1[C@@H]1CC[C@H]2O1 (stereo partly specified)	-77*
N#C[C@H]1[C@@H](c2ccc(-c3cccc(F)c3)cc2)[C@H](CO)N1c1nc(-c2ccccc2)cs1	10

The list continues:
SMILES | Tg IFNy HTS
COc1ccc(NC(=O)N2CCCCC2c2cccc(F)c2)cc1 (stereo unspecified) | 0
Cc1ccsc1[C@@H]1CCN(C(=O)CCc2n[nH]c(C)c2C)C[C@H]1O | -4
COCc1nnc(NC(=O)CCc2c(C)nc3cc(C)nn3c2C)s1 | 5
Cc1ccc(NC(=O)CN2CCC3(CC2)N=C(c2ccc(C)c(C)c2)C(=O)N3)c(Cl)c1 | 13
COc1ccc(-c2nc3c(s2)CN(C(=O)Nc2cc(C)ccc2C)CC3)cc1 | 78
O=C(/C=C/c1ccco1)N1CCN(c2ccccc2)CC1 | -36
COc1ccccc1-c1ccc(NC(=O)Cn2nc(C(F)(F)F)nc2N)cc1 | 18
COc1ccc(OC)c(NC(=O)N2CCN(Cc3nc(-c4cccc(Cl)c4)oc3C)CC2)c1 | 0
Cn1c(-c2cc(Br)cs2)nc(=O)c2ccccc21 | -11
CCN(CCO)C(=O)c1coc(COc2ccc(F)cc2Cl)n1 | -54
c1ccc2oc(NC3=NCN(CCN4CCOCC4)CN3)nc2c1 | 23
COc1ncc(CN(C)Cc2ccc(C)o2)cn1 | -48
COc1nc2ccccc2cc1-c1cnccc1N | 44
CC(CCc1ccccc1)Nc1nc(-c2ccc(Cl)cc2)nc2ccccc12 (stereo unspecified) | -78
O=C(Oc1ccc(Cl)c2cccnc12)c1cccnc1 | -68
CS(=O)(=O)N1CCOCC2(CCC(Cn3cncn3)O2)C1 (stereo unspecified) | 67
COc1ccc(-c2nc(NCc3ccc(C)o3)c3ccccc3n2)cc1 | -43
Cc1nc2c(c(N(C)C)n1)CCN(C(=O)CN1C(=O)NC(=O)C1(C)C)C2 | -4
CCn1cc(C(=O)OCC(=O)Nc2cccc(C(F)(F)F)c2)c(=O)c2ccc(C)nc21 | -10
O=S1(=O)CCCC(CN2CC(c3cccnc3)C2)C1 (stereo unspecified) | 3
CCS(=O)(=O)Nc1ccc2c(c1)C(=O)N(C)[C@H]1CC[C@H](CC(=O)NCc3ccc(OC)cc3)O[C@H]1CO2 | 19
CC(=O)N1CCC(n2cccn2)c2cc(NC(=O)c3ccco3)ccc21 (stereo unspecified) | 8
COc1ccccc1Oc1ccccc1C(=O)O | 0
CCN1C(=O)N(C2Cc3ccccc3C2)C(=O)C12CCN(Cc1ccc3c(c1)OCCO3)CC2 | 12
Cc1nc(C(C)C)cc(N2CCCC(OCc3ccccn3)C2)n1 (stereo unspecified) | -8

Taken from above.
Value of CCS(=O)(=O)Nc1ccc2c(c1)C(=O)N(C)[C@H]1CC[C@H](CC(=O)NCc3ccc(OC)cc3)O[C@H]1CO2 under Tg IFNy HTS: 19
Value of COCc1nnc(NC(=O)CCc2c(C)nc3cc(C)nn3c2C)s1 under Tg IFNy HTS: 5

(list continues)
SMILES | Tg IFNy HTS
COc1cccc(-n2c(CCCO)nc3ccccc32)n1 | 64
Fc1ccccc1CC1CCN(Cc2ccccn2)CC1 | -6
Nc1nccc2c1ncn2[C@@H]1C=C(CO)[C@@H](O)[C@H]1O | -78*
CC1CCN(S(=O)(=O)c2ccc3c(c2)oc(=O)n3C)CC1 | 128
COc1ccc2c(c1)OCC(CN(C)CCCn1nc(C)cc1C)=C2 | 15
Cc1nc(C)c(C(=O)N2CCC2c2ccc(F)cc2)s1 (stereo unspecified) | -32
CCc1ocnc1C(=O)N1CCn2nc(C(=O)OC)cc2C1 | -9
Cc1cccc(N2CCN(C(=O)CCC3Nc4c5ccccc5nc(=S)n4C3=O)CC2C)c1 (stereo unspecified) | 7
CCN(CC)c1ncnc2c1cnn2CC(=O)Nc1cccc(F)c1 | -75*
COc1cccc(Nc2ccc3c(C4CCCN4C(=O)NC(C)C)nnn3c2)c1 (stereo unspecified) | 19
Cc1cc(NC(=O)c2nc(Nc3ccccc3)c3ccccc3n2)ccc1Br | 12
Cc1nc(CCNC(=O)[C@H]2CCCN2S(=O)(=O)c2cnn(C(F)F)c2C)cs1 | 0
O=C(NC[C@H]1CCCN(C(=O)c2cnccn2)C1)c1cccs1 | 13
CCOC(=O)N1CCC2(CC1)OC(=O)C(C)=C2C(=O)NCCCc1ccccc1 | -23
COc1ccc(NC(=O)N2CCC3(CC2)Nc2cc(OC)ccc2-n2cccc23)cc1 | 306
CN1CCN(Cc2n[nH]c(=O)n2CCc2ccccc2F)CC1 | 8
COc1cccc(CNC(=O)c2cncc(OC(C)C)c2)c1 | 6
Nc1ccc2nc(-c3ccc(-c4nc5ccc(N)cc5[nH]4)cc3)[nH]c2c1 | -4
CCc1nccn1C(C)C(=O)N1CCN(c2ccccc2C(F)(F)F)CC1 (stereo unspecified) | -40
O=C(NC1Cc2ccccc2C1)[C@@H]1N[C@@H]2c3cccc(=O)n3C[C@@H]2[C@H]1CO | 1
COc1ccc(CC(=O)N2CCN(c3ncnc4ccc(N(C)C)cc34)CC2)cc1 | -34
Cc1cccn2cc(C(=O)N3CC[C@@H](c4ccc5c(c4)OCO5)[C@H](O)C3)nc12 | -2
Cc1ncn2cc(-c3ccc(Cl)cc3Cl)[nH]c(=O)c12 | -49
C[C@@H]1CCCCO[C@H](CN(C)S(C)(=O)=O)[C@@H](C)CN([C@H](C)CO)C(=O)c2cc(NC(=O)NC3CCCCC3)ccc2O1 | 148
CCOc1ccccc1NC(=O)Nc1ccc(-c2nc(-c3ccccc3)co2)cc1 | -16
Later entries.
SMILES | Tg IFNy HTS
Cc1nc(C(C)NC(=O)c2cccc(NCc3ccc(C)s3)c2)n[nH]1 (stereo unspecified) | -2
O=C(O)C1Cc2ccccc2CN1S(=O)(=O)c1ccccc1 (stereo unspecified) | -14
CCC(C)(C)n1nnnc1C(c1ccc(C)cc1)N(Cc1ccco1)Cc1cccs1 (stereo unspecified) | -9
COc1cccc(F)c1-c1cc(C(=O)N2CCCC2)ccn1 | 5
CS(=O)(=O)N1CCOCC2(CCC(Cn3cccn3)O2)C1 (stereo unspecified) | 4
O=C(C[C@H]1C=C[C@@H](NC(=O)Cc2ccccn2)[C@H](CO)O1)NCCc1ccncc1 | 34
COc1cccc(-c2nc(Cn3cnc4onc(C)c4c3=O)c(C)o2)c1OC | -16
CC(C)C(=O)c1cc(-c2cnc(-c3ccnn3C)nc2)cn1CC1CC1 | -20
CCN1C(=O)C(C2SC(=S)N(CC)C2=O)SC1=S (stereo unspecified) | 68
COCC1c2c(cnn2CC2CC2)CCN1C(=O)c1ccoc1 (stereo unspecified) | -1
CCN1CCOCC2(CCCN(C(=O)COC)C2)C1 (stereo unspecified) | -37
CCc1ccccc1S(=O)(=O)N1CCC2(CC1)Nc1ccc(C)c(C)c1-n1cccc12 | 22
Cc1ccc(S(=O)(=O)N2CCn3cnc(COCC4CC4)c3C2)cc1 | -1
Nc1ccccc1NC(=O)c1cccnc1 | 46
CN(C)CC1(O)CCCN(c2ncccc2C(N)=O)CC1 (stereo unspecified) | -47
Cn1c(-c2ccc(Cl)cc2)n[nH]c1=S | -97*
CN(C)CCN1C[C@@H]2CN(S(=O)(=O)c3cccs3)C[C@H]2C1=O | 44
Cc1cccc2cc(CO)c(N3CCC(CO)(Cc4ccccc4)CC3)nc12 | -77*
O=C(NC1C=CS(=O)(=O)C1)c1cnn2c1CCCC2 (stereo unspecified) | 14
COc1ccc2c(c1)C=C(CN1CCC(c3cc(CCOc4cccc(F)c4)[nH]n3)C1)CO2 (stereo unspecified) | 19
CC(C)[C@H]1c2ccc(F)cc2CC[C@@]1(CCN(C)CCCc1nc2ccccc2[nH]1)OC(=O)C1CC1 | -86*
CN(Cc1cccnc1)C1CCN(C(=O)c2cccs2)C(C(=O)O)C1 (stereo unspecified) | 1
CCOc1ccc2ccccc2c1CN(C)Cc1noc(C)n1 | 1
O=C(CSc1n[nH]c(=O)n1-c1cccnc1)c1ccc2c(c1)OCCO2 | 6

Screens: PubChem, Broad Institute
